Screening results: PubChem BioAssay, ICCB-Longwood Screening Facility, Harvard Medical School
GIV Gai3 FP: GIV-Galpha-i interaction inhibition; P08753; Galpha-i3/FITC-GIV peptide fluorescence polarization, 90 min; active compounds read low; scaled: aluminum fluoride 0%, vehicle 100%; percent of control (FP), % (concentration not given with the values); actives 0.42% (n = 210,000);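 active = replicate mean at 85% of control or lower, very high polarization wells dropped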;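 also: wells of about 15 µL received 100 nL stock; the first replicate is given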
Target sequence (P08753 whole entry, looked up): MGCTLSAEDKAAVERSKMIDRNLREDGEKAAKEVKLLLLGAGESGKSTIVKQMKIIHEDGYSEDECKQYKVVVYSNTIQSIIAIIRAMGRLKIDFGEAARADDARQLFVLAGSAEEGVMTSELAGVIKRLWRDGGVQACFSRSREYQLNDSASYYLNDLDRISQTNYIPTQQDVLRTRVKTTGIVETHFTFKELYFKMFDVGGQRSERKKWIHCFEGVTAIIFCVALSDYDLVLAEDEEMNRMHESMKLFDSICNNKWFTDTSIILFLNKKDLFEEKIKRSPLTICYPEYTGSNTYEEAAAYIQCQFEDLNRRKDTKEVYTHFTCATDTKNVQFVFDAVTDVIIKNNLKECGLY
Sa growth 42C: S. aureus growth inhibition. S. aureus RN4220 growth, OD600, 20 h, 42 °C; active compounds read low. relative growth, % (concentration not given with the values). actives 0.53% (n = 170,000);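 active = growth at 42 °C up to 50% and 20 or more points under that at 30 °C, or under 10% at both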;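 also: 300 nL library stock went into each well; scaled to the means of positive and negative controls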
HCMV NEC inh: inhibitors of HCMV UL50-UL53 nuclear egress complex interaction; HTRF UL50-UL53 interaction, normalized percent inhibition; inhibition, % (concentration not given with the values); actives 0.15% (n = 190,000); AID 1918969;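 active = both replicates at 50% or more, plus weaker picks with an unusually low signal ratio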;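 also: stock transfer was 100 nL into about 20 µL; 0% = negative control wells and 100% = wells with untagged competitor protein; inactives centre near -12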
Sa growth 42C second temp: further read-out of Sa growth 42C, marked with its call; relative growth, %; measured here: growth at 30 °C;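 optical density after 20 h as mean of two plates; 100% = untreated growth and lower means inhibition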
Starred values were filed as active, the others as inactive; nt = no result given; & = joins results of further samples.

SMILES | GIV Gai3 FP | Sa growth 42C | Sa growth 42C second temp | HCMV NEC inh
Cc1ccc(-c2nc(C#N)c(NCCCn3ccnc3)o2)cc1 | 102 | 99 | 99 | nt
COC(=O)c1noc(C)c1-c1ccnn1C(=O)c1cc(C(F)(F)F)cc(C(F)(F)F)c1 | 104 | 96 | 101 | -6
COC(=O)c1sccc1N/N=C(/C#N)C(=O)C1CC1 | 111 | 99 | 100 | -13
CN(C)C(=O)c1csc(S(=O)(=O)N2CCC(C(=O)NC3CC3)CC2)c1 | 110 | nt | nt | -9
CCC1(CC)C(=O)N=C(SCC(=O)Nc2c(C)n(C)n(-c3ccccc3)c2=O)N(C)C1=O | 102 | 106 | 97 | -17
CCOC(=O)C1=C(C)N=c2s/c(=C\c3cccc(OC)c3OC)c(=O)n2C1c1ccc2c(c1)OCO2 (stereo unspecified) | 99 | nt | nt | -14
COc1ccc(Nc2nc(Nc3ccc([N+](=O)[O-])cc3)nc(OC)n2)cc1 | 101 | nt | nt | -24
COc1ccc(CC(=O)N2CCN(c3ncccn3)CC2)cc1OC | 101 | 78 | 84 | -39
CCn1c(SCc2nc3ccc([N+](=O)[O-])cc3[nH]2)nc2ccccc21 | 103 | nt | nt | -14
COc1ccc(CC(=O)NCC(c2ccc(Cl)cc2)N2CCOCC2)cc1 (stereo unspecified) | 104 | 99 | 84 | -31
O=C(NCCS(=O)(=O)N1CCN(c2ccccc2F)CC1)c1ccccc1C(F)(F)F | 110 | 95 | 103 | nt
O=C(NCc1ccco1)C1CCN(C(=O)N2CCOc3ccc(Cl)cc32)CC1 | 102 | 98 | 94 | 11
CC1CC(C)(C)OC(c2ccccc2)O1 (stereo unspecified) | 111 | 96 | 84 | -32
CCOc1ccc(-c2cc3nc(C4CCN(C(=O)OC(C)(C)C)CC4)c(C(=O)Nc4cc(OC)ccc4OC)cn3n2)cc1 | 124 | 90 | 99 | -24
CCOc1ccc2nc(NC(=O)c3ccncc3)sc2c1 | 101 | 104 | 106 | 13
CCSc1nnc(NC(=O)c2cc(S(=O)(=O)N3CCCC3)cn2C)s1 | 108 | nt | nt | -6
Cc1ccc(C(=O)N2CCc3cc(CNC(=O)c4ccccc4F)ccc32)cc1 | 104 | 101 | 87 | nt
CC1(C)CC(=O)c2sc(NS(C)(=O)=O)nc2C1 | 98 | 109 | 91 | nt
CC1(C)CC(=O)C2=C(C1)Nc1[nH]n(-c3ccccc3)c(=O)c1C2c1ccco1 (stereo unspecified) | nt | 92 | 102 | -9
COC(=O)c1ccc(C(=O)OC)c(N(C)S(C)(=O)=O)c1 | 105 | 92 | 84 | -36
COc1ccc(S(=O)(=O)c2c(O)c(C)cc(NC(=O)c3ccccc3)c2C(C)C)cc1 | 101 | 99 | 85 | -20
Cc1ccc(-c2cc(=O)[nH]c(Nc3nc(C)c4ccccc4n3)n2)cc1 | 95 | nt | nt | -19
Cc1[nH]c2ccccc2c1Sc1ccccc1 | nt | 99 | 73 | -2
O=c1onc(-c2ccccc2)n1-c1cccc(Cl)c1 | 106 | 105 | 91 | -18
CN=C1SC(CC(=O)Nc2ccc(Br)cc2)C(=O)N1/N=C/c1cccs1 (stereo unspecified) | nt | 98 | 93 | -8
COc1ccc(CNC(=O)c2c(Nc3ccc(OC)cc3OC)sc(C(=O)c3ccc(Cl)cc3)c2N)cc1 | 102 | 90 | 94 | nt
Cc1ccn2c(c1)nc(=O)c1cc(S(=O)(=O)N3CCC(C)CC3)c(Cl)cc12 | 109 | 111 | 90 | -12
N#C/C(=C\Nc1ccc2c(c1)OCCO2)S(=O)(=O)c1ccc(Cl)cc1 | 100 | 80 | 56 | -10
O=C1CC(c2nnc(Cc3ccc(F)cc3Cl)o2)CN1c1ccccc1 (stereo unspecified) | 109 | 99 | 80 | 17
CCOC(=O)C1CCCN(C(=O)c2sc3nc(-c4ccccc4)cn3c2C)C1 (stereo unspecified) | 103&104 | 94 | 62 | -12&-2
O=C(NCCn1c(-c2ccncc2)nc2cccnc21)Nc1ccccc1Br | 104 | nt | nt | 11
Cc1ccc(S(=O)(=O)C=C(c2ccccc2)c2ccccc2)cc1 | nt | 106 | 84 | -8
Cc1cc(C(=O)O)c2cc(O)ccc2n1 | nt | 108 | 90 | -15
Cc1cn(C)c(CC(=O)NCc2cccc(Cl)c2)c1C(=O)O | 101 | 102 | 94 | nt
COc1ccc(-c2csc(C3=C(O)CN(CCC(C)C)C3=N)n2)cc1OC | nt | 133 | 85 | -9
COCCn1cnnc1SCC(=O)C12CC3CC(CC(C3)C1)C2 | nt | 108 | 107 | 11
CN(C)C(=O)c1ccc2c(c1)N(CC(=O)NC1CCCC1)C(=O)CS2 | 111 | nt | nt | -9
CCCc1cc(=O)n2[nH]c(-c3ccccc3)cc2n1 | 103 | 96 | 71 | 2
O=C(OCc1ccc(Br)cc1)c1cccnc1 | nt | 111 | 87 | 37
CC(=O)Nc1cc(OC(=O)c2ccco2)cc(OC(=O)c2ccco2)c1 | 98 | 100 | 102 | -2
CCc1ccc(Nc2nc(C)nc3onc(C)c23)cc1 | 100 | nt | nt | -10
OC(CNCc1ccc(-c2ccccc2Cl)o1)c1ccccc1 (stereo unspecified) | 98 | 132 | 63 | -7
Cc1ccc(NS(=O)(=O)CC23CCC(CC2=O)C3(C)C)cc1 (stereo unspecified) | 98 | 92 | 85 | nt
O=C(Nc1ccc(C(=O)NC2CCCCC2)cc1)c1cncc(Br)c1 | nt | 104 | 82 | -3
CC1CCCC(C)N1C(=O)CN(C)S(=O)(=O)c1ccc2c(c1)OCCO2 (stereo unspecified) | nt | 101 | 106 | 8
O=C1NN(C(=O)Nc2ccc(Br)cc2)[C@@H](c2ccccc2)[C@@H]1c1ccccc1 | 105 | 124 | 82 | 12&-11
O=S(=O)(NCc1cccn1Cc1ccccc1)c1ccc2c(c1)CCCC2 | 104 | nt | nt | -33
CC(=O)C(Sc1nc(-c2ccccc2Cl)nc2c1c(=O)n(C)c(=O)n2C)C(=O)N(C)C (stereo unspecified) | 100 | 81 | 87 | nt
CCOc1ccccc1CNC(=O)c1oc2ccc3c(c2c1C)C(=O)CC(C)(C)O3 | 105 | 99 | 77 | -34
COc1ccc(C2Sc3ccccc3NC3=C2C(=O)c2ccccc23)c(OC)c1OC (stereo unspecified) | 107 | 109 | 92 | -39
Next results.
SMILES | GIV Gai3 FP | Sa growth 42C | Sa growth 42C second temp | HCMV NEC inh
Nc1ccccc1C(=O)NCc1ccc2c(c1)OCO2 | 103 | 97 | 103 | 11
O=C(Nc1nc(-c2ccc(Cl)c(Cl)c2)cs1)C1CC1 | 102 | 102 | 93 | nt
Cc1cc(C(=O)O)ccc1N/C=C1\CCCC(C)C1=O (stereo unspecified) | 139 | 65 | 76 | nt
CCOC(=O)c1ccc(N2C(=O)CSC2c2ccccc2)cc1 (stereo unspecified) | 105 | 103 | 107 | 0
O=S(=O)(CCSc1nccc(-c2cccs2)n1)c1ccc(Cl)cc1Cl | 104 | 91 | 82 | -22
COC(=O)c1ccc(Cn2nc(C)c(Cl)c2C)cc1 | nt | 95 | 80 | -33
COc1ccc(/C=N/NC(=O)c2sc(C)nc2C)cc1 | nt | 99 | 101 | -57
COc1ccc(CCNc2cc(=O)oc3ccccc23)cc1OC | 102 | 117 | 74 | -11
O=c1cc(-c2cccs2)oc2ccccc12 | 106 | 91 | 43 | -34
O=C(COc1ccccc1)Nc1c(Cl)ccc2nsnc12 | 97 | 99 | 93 | -72
Cc1ccccc1-c1nc2cc(NC(=O)C3CC3)ccc2o1 | nt | 136 | 79 | -2
CCCNC(=O)C1CCN(C(=O)c2cc3sccc3n2Cc2ccc(Cl)cc2)CC1 | 102 | 109 | 91 | -9
CC(=O)Oc1cc2c(C(=O)NC3CC(C)(C)NC(C)(C)C3)c(C)oc2c2ccccc12 | 99 | 107 | 79 | -29
CCOC(=O)CN1NC2(CCCCCCC2)NC1=S | 103 | 97 | 94 | 8
CCN1C(=O)c2ccccc2S(=O)c2ccc(C(=O)N3CCc4ccccc4C3)cc21 (stereo unspecified) | 105 | 111 | 94 | 4
CCN1C2=C(C(=O)CCC2)C(c2cccc(O)c2)C2=C1CCCC2=O | 105 | 109 | 67 | nt
CC(C)NC(=O)CSc1nccc(-c2cccs2)n1 | 115 | 118 | 83 | -25
Cc1noc2ncnc(N(C)Cc3ccccc3)c12 | 95&102 | 94 | 97 | -6&-2
O=C(O)CCc1ccc(-c2cccs2)n1CC(=O)Nc1ccccc1C(F)(F)F | 103 | 114 | 79 | 6
CN(C)c1ccc(CNC(=O)C2CCN(S(=O)(=O)c3ccc4c(c3)oc(=O)n4C)CC2)cc1 | 103 | 109 | 96 | -21

2 compounds picked at random from the list so far:
SMILES | GIV Gai3 FP | Sa growth 42C | Sa growth 42C second temp | HCMV NEC inh
Cc1noc2ncnc(N(C)Cc3ccccc3)c12 | 95&102 | 94 | 97 | -6&-2
O=C(O)CCc1ccc(-c2cccs2)n1CC(=O)Nc1ccccc1C(F)(F)F | 103 | 114 | 79 | 6

(further entries)
SMILES | GIV Gai3 FP | Sa growth 42C | Sa growth 42C second temp | HCMV NEC inh
O=S(=O)(NCCc1nnc2ccc(SCc3ccccc3)nn12)c1ccccc1 | 104 | 97 | 80 | nt
COc1cccc(Oc2nc3c(c(=O)n(Cc4ccccc4F)c(=O)n3C)n2C)c1 | 107 | 87 | 88 | -33
NC(N)=NCCCCN=C(N)N | 105 | nt | nt | -10&-32
Cc1cc(=O)nc2c3ccccc3n(C(C)C(=O)Nc3c(F)c(F)cc(F)c3F)n12 (stereo unspecified) | 104 | 80 | 89 | nt
COCCNC(=O)CCn1c(=O)c2cc(OC)c(OC)cc2n(CC(=O)Nc2ccccc2C)c1=O | 104 | 92 | 92 | 11
Cc1cc(C(=O)/C(C#N)=C/Nc2cccc(OC(F)(F)F)c2)c(C(F)(F)F)o1 | 105 | 94 | 94 | 7
Cc1cc(NC(=O)COC(=O)C2=COCCO2)n(-c2ccccc2)n1 | nt | 110 | 90 | -5
CC12C=CC(O1)C1C(=O)N(c3ccccc3Cl)C(=O)C12 (stereo unspecified) | nt | 72 | 95 | 13
O=C(CC12CC3CC(CC(C3)C1)C2)Nc1ccc2oc(-c3ccncc3)nc2c1 | 110 | 94 | 93 | -4
CC(=O)Nc1cccc(Oc2c(F)c(F)c(F)c(F)c2F)c1 | 102 | 123 | 74 | 0
CN(C)c1ccc(NC(=O)CSC2=Nc3ccccc3C3=NC(CC(=O)NCc4ccc5c(c4)OCO5)C(=O)N23)cc1 (stereo unspecified) | 107 | 93 | 90 | nt
Cc1nc(C(F)(F)F)ccc1C(=O)Nc1oc(-c2ccccc2)cc1C#N | 103 | 80 | 24 | -6
c1csc(-c2csc(N3CCCCC3)n2)c1 | nt | 88 | 102 | -42
CCC(CC)C(=O)Nc1ccccc1C(=O)OCc1cc(=O)n2nc(C3CCCCC3)sc2n1 | 97 | 74 | 90 | nt
CC(C)C(=O)N(c1ccc2oc(=O)sc2c1)S(=O)(=O)c1ccccc1 | 97 | 109 | 100 | nt
Cc1ccccc1NC(=O)CSc1nc2ccc(NC(=O)COc3ccccc3F)cc2s1 | 102 | 98 | 68 | -24
O=C(Nc1ccc2oc(-c3cccc(Cl)c3)nc2c1)c1ccc2c(c1)OCCO2 | 107&102 | nt | nt | -9&-14
Cc1ccc(OCC(=O)NC(c2ccccc2)c2nnc(-c3ccccc3)o2)cc1 (stereo unspecified) | 102 | nt | nt | -17
COC(=O)C1=C(C)NC(=O)NC1/C=C/c1ccccc1 (stereo unspecified) | nt | 81 | 78 | -9
COc1ccc(CNC(=O)C2CCN(Cc3nc(-c4ccc(Cl)cc4)oc3C)CC2)cc1 | 108&105 | 86 | 94 | -39&-27
Clc1ccc(CN2C3=NCCCN3c3ccccc32)c(Cl)c1 | 96 | 81 | 60 | -20
Cc1n[nH]c(C)c1S(=O)(=O)N1CCCCC1 | 104 | 98 | 89 | -1
CCOC(=O)N1CCN(c2ccc(O)cc2)CC1 | nt | 66 | 93 | 10
O=S(=O)(c1ccc(-c2noc(-c3cnccn3)n2)cc1)N1CCCC1 | 106 | nt | nt | -21
CC(=O)c1cc(-c2ccccc2)n(CC(=O)NCc2ccccc2C)c1C | 98 | 100 | 75 | -16
Cc1csc2sc(-c3ccnc(SCC(=O)NC(C)C)n3)c(C)c12 | 103 | 100 | 94 | 4

Molecules shown so far that have a thiophene ring, fused or not:
SMILES | GIV Gai3 FP | Sa growth 42C | Sa growth 42C second temp | HCMV NEC inh
COC(=O)c1sccc1N/N=C(/C#N)C(=O)C1CC1 | 111 | 99 | 100 | -13
CN(C)C(=O)c1csc(S(=O)(=O)N2CCC(C(=O)NC3CC3)CC2)c1 | 110 | nt | nt | -9
CN=C1SC(CC(=O)Nc2ccc(Br)cc2)C(=O)N1/N=C/c1cccs1 (stereo unspecified) | nt | 98 | 93 | -8
COc1ccc(CNC(=O)c2c(Nc3ccc(OC)cc3OC)sc(C(=O)c3ccc(Cl)cc3)c2N)cc1 | 102 | 90 | 94 | nt
O=S(=O)(CCSc1nccc(-c2cccs2)n1)c1ccc(Cl)cc1Cl | 104 | 91 | 82 | -22
O=c1cc(-c2cccs2)oc2ccccc12 | 106 | 91 | 43 | -34
CCCNC(=O)C1CCN(C(=O)c2cc3sccc3n2Cc2ccc(Cl)cc2)CC1 | 102 | 109 | 91 | -9
CC(C)NC(=O)CSc1nccc(-c2cccs2)n1 | 115 | 118 | 83 | -25
O=C(O)CCc1ccc(-c2cccs2)n1CC(=O)Nc1ccccc1C(F)(F)F | 103 | 114 | 79 | 6
c1csc(-c2csc(N3CCCCC3)n2)c1 | nt | 88 | 102 | -42
Cc1csc2sc(-c3ccnc(SCC(=O)NC(C)C)n3)c(C)c12 | 103 | 100 | 94 | 4
